Screening data (PubChem)
BJeLR viability: MLPCN primary cell-based screen for lethality selective to Ras in HRASV12 cells; BJeLR (HRASV12) viability, CellTiter-Glo ATP luminescence, 48 h; reference of the scale not given here; inhibition, % (concentration not given with the values); 300,000 tested, 0.17% active;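 active = replicate mean above 50%; inconclusive = above 50% but judged a plate artefact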;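 also: 50 nL library stock added to about 25 µL; numbers are from one replicate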
ugtP null kill: growth inhibition of ugtP-null S. aureus, primary screen, RN4220 ugtP deletion, OD600; 16 h; some inactives read as strong as hits; growth inhibition, % (concentration not given with the values); 330,000 tested, 0.54% active; AID 1259309, 2017;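 active = z-score under -3 and OD600 up to 0.15 on both plates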;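 also: plate controls were untreated wells for no effect and antibiotic for full effect; wells of about 80 µL received 100 nL stock; the first replicate is given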
RN4220 kill: growth inhibition of S. aureus RN4220, primary screen, OD600; 16 h; inhibition, % (concentration not given with the values); 330,000 tested, 0.33% active; AID 1259311, 2017;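 active = z-score of -3 or lower and OD600 up to 0.18 on both plates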;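 also: plate controls were untreated cells for no effect and reference antibiotic for full effect; stock transfer was 100 nL into about 80 µL; one replicate is shown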
Mtb hypoxia rep: PubChem AID 1159583; M. tuberculosis hypoxia-regulated fluorescent reporter, fluorescence; fluorescence inhibition, % (no concentration beside the values); 300,000 tested, 0.1% active;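 active = 35 to 45% if threefold the growth effect, above 45% if 1.5-fold the growth effect; inactive = the rest, general growth blockers included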;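 also: wells of about 50 µL received 100 nL stock; 0% = vehicle wells and 100% = reference inhibitor wells; whole bacteria with a GFP reporter of the hypoxia response; strong numbers were not always called active; many hits fall short of the cut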
PrP 5UTR inh: inhibition of PrP 5' UTR reporter expression. cell-based PrP 5' UTR mRNA reporter, plate reader. inhibition, % (test concentration not listed). 340,000 tested, 0.35% active;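 active = every replicate at 50% or more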;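 also: 0 = median of the neutral control wells; tested in H4 reporter cells; numbers are from one replicate; inactives centre near -14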
Bead autofluor: counter-screen for toxin protease inhibitors: compound fluorescence; fluorescence intensity (concentration not given with the values); AID 624483; compound autofluorescence counterscreen, microsphere flow cytometry; stronger effect = higher value; 360,000 tested, 3.1% active;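 active = at least 3 SD above the mean of all compounds, about 16000 in these data; inconclusive = too few beads counted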;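 also: 100 nL of 1 mM stock went into each well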
Mtb hypoxia rep growth: further read-out of Mtb hypoxia rep, marked with its call; growth inhibition, %; measured here: M. tuberculosis growth (absorbance);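 0% = vehicle and 100% = reference antibiotic; read after six days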
* marks the source's active call; other numbers are inactive results; ? = inconclusive; . = not tested or not shown; & = joins results of further samples.

molecule | BJeLR viability | ugtP null kill | RN4220 kill | Mtb hypoxia rep | Mtb hypoxia rep growth | PrP 5UTR inh | Bead autofluor
O=c1[nH]c2ccc(Br)cc2c(-c2ccccc2)c1CN1CCOCC1 | 1 | 8 | 3.3 | 2 | 1 | -22 | 6015
NC(COc1cccc(Cl)c1)=NO | . | 2 | 1.3 | -4 | -6 | . | .
CN(C)c1ccc(/C=C/c2nc3ccccc3c(=O)n2-c2ccc(C(=O)O)cc2)cc1 | -4 | 5 | 13 | -10 | 5 | -14 | 4582
O=C(CCNC(=O)c1ccco1)Nc1ccc(OC(F)(F)F)cc1 | 0 | -1 | 0.9 | 5 | 3 | -11 | 5000
Cc1ccc(NC2CCCCC2NS(=O)(=O)c2ccccc2)c(C)c1 (configuration not stated) | 4 | 8 | 6.5 | 9 | 4 | -22 | 5491
Cc1nc(C)c(Oc2cccc(C(F)(F)F)c2)c(=O)[nH]1 | -3 | 2 | 2.7 | 7 | 1 | -9 | 3462
CC(/C=C/c1ccco1)=N\NC(=O)c1cc(Cl)ccc1O | 7 | . | . | . | . | -2 | 2281
COc1ccccc1N1CCN(/N=C/c2ccc(Cl)c([N+](=O)[O-])c2)CC1 | 12 | . | . | . | . | -12 | 2936
N#CC1=C(N)NC(=S)C(C(N)=O)C1c1ccccc1F (configuration not stated) | -5 | 4 | -5.2 | 0 | 8 | -11 | ?
O=C1C(=NO)Cc2ccccc21 | . | 7 | 3.3 | 10 | 2 | . | .
COCCN(C(=O)CSc1nnc(-c2cccc(F)c2)n1N)c1c(N)n(Cc2ccccc2)c(=O)[nH]c1=O | -2 | . | . | . | . | -14 | ?
COc1cc(NS(=O)(=O)c2ccc(NC(=S)NC(=O)C3CCCC3)cc2)nc(OC)n1 | 2 | 51 | 2.3 | -3 | 3 | -8 | 9953
OCCNCCCCSc1ccc(Cl)cc1 | 2 | 7 | 1.8 | 3 | 11 | -20 | 2462
CCC(=O)Nc1ccc(C(=O)n2ccc(C)n2)cc1 | 1 | 0 | 4.6 | 3 | 3 | -28 | 3240
COCCCn1c(SCC(=O)OC2CCCCC2)nnc1-c1ccco1 | -4 | 2 | 3.0 | 9 | 3 | -8 | 8148

Some of the entries so far, field by field.
OCCNCCCCSc1ccc(Cl)cc1
  BJeLR viability: 2
  ugtP null kill: 7
  RN4220 kill: 1.8
  Mtb hypoxia rep: 3
  Mtb hypoxia rep growth: 11
  PrP 5UTR inh: -20
  Bead autofluor: 2462

Cc1nc(C)c(Oc2cccc(C(F)(F)F)c2)c(=O)[nH]1
  BJeLR viability: -3
  ugtP null kill: 2
  RN4220 kill: 2.7
  Mtb hypoxia rep: 7
  Mtb hypoxia rep growth: 1
  PrP 5UTR inh: -9
  Bead autofluor: 3462

Continuation.
molecule | BJeLR viability | ugtP null kill | RN4220 kill | Mtb hypoxia rep | Mtb hypoxia rep growth | PrP 5UTR inh | Bead autofluor
CC(C)(C)c1ccc(C(=O)N/C(=C\c2cccs2)C(=O)N2CCOCC2)cc1 | -1 | 1 | 1.7 | -2 | 9 | 6 | 3622
CCC(CC)C(=O)NCc1ccc(OC)cc1 | -4 | 12 | 6.1 | 4 | -1 | -8 | 3276
C=CCC1(NCc2ccco2)CCN(CC)CC1 | 5 | 4 | 5.4 | 6 | 3 | 3 | 2561
COc1cc(-c2cc(C(=O)Nc3ccc(S(=O)(=O)NCc4ccco4)cc3)c3ccccc3n2)cc(OC)c1OC | 14 | -6 | 5.8 | 8 | -2 | -22 | 7769
C=CCSc1nnc(NC(=O)c2cn(CC)c3nc(C)ccc3c2=O)s1 | -23 | 4 | -2.3 | 3 | -4 | -16 | 5339
COc1cc(C)c(Cl)cc1S(=O)(=O)N(C)C | -1 | 0 | 6.5 | . | . | -7 | 4936
Cc1ccc(NC(=O)c2cccs2)cc1NC(=O)c1ccccc1Cl | -1 | -8 | 7.6 | 8 | -4 | -15 | 2913
CCCCn1c(N)c(N(CC(C)C)C(=O)c2ccc(S(=O)(=O)N3CCCCC3)cc2)c(=O)[nH]c1=O | 0 | 4 | 2.0 | -5 | 2 | -24 | ?
COc1ccc(NC(=O)Cn2ncn3nc(-c4ccc(OC)cc4)cc3c2=O)cc1 | -7 | 3 | 8.3 | -1 | 0 | -20 | 5507
CC(C)NS(=O)(=O)c1ccc(NC(=O)C2CCCCC2)cc1 | 3 | 2 | 6.8 | 5 | 7 | -25 | 7910
CC1CC(C)(C)NC(=S)N1CCC(=O)NCc1ccc(F)cc1 (configuration not stated) | 1 | 3 | 1.3 | 9 | -2 | -7 | 3432
Cn1cccc1/C=N/NC(=O)c1ccco1 | -3 | . | . | . | . | -6 | 4061
O=C(Nc1ccc(Br)cc1)C1C2C=CC3(O2)C1C(=O)N(CCN1CCOCC1)C3C(=O)NC1CCCCC1 (configuration not stated) | -3 | -1 | 5.9 | 0 | -13 | -7 | 4147
COC(=O)c1[nH]c(C)c(/C(O)=C2\C(=O)C(=O)N(CCN(C)C)C2c2cc(OC)ccc2OC)c1C (configuration not stated) | 8 | . | . | . | . | -8 | 2879
O=C(OCn1ncc(Cl)c(Cl)c1=O)c1ccc(C(F)(F)F)cc1 | -11 | 3 | 9.0 | 11 | 15 | -17 | 10280
COc1ccc(C2(CN(C(C)=O)C(C)=O)CCCC2)cc1OC | 2 | 8 | 4.9 | 7 | -1 | -16 | 2830
COc1ccc(-c2cn3cccnc3n2)cc1F | 4 | 16 | 4.7 | 14 | 5 | -49 | 2159
COc1ccc(CCNC(=O)c2nnn(CC(=O)Nc3ccccc3)c2N)cc1OC | 6 | 10 | -0.7 | . | . | -17 | 4945
COc1ccccc1NC(=O)CN1CCN(CC(=O)Nc2cc(C)ccc2OC)CC1 | 21 | 2 | 1.5 | -14 | 1 | 5 | 3640
CN1CCN(C(=O)C2=CC(c3ccccc3)CC(OCc3ccc(CO)cc3)O2)CC1 (configuration not stated) | . | 2&-1 | 7.0&0.7 | 0&10 | -5&13 | . | .
CC1CN(S(=O)(=O)c2cccc(C(=O)OCC(=O)Nc3ccc4c(c3)OCO4)c2)CC(C)O1 (configuration not stated) | . | 1 | 1.0 | 4 | 2 | -7 | 4350
COc1ccccc1NS(=O)(=O)c1cc(NC(=O)c2ccncc2)ccc1N1CCCC1 | -8 | -5 | 7.0 | 13 | 6 | -21 | 3617
CCn1c(Cc2cccs2)nnc1SCC(=O)Nc1ccc(OC)c(OC)c1 | -4 | -1 | 5.4 | 9 | 5 | -16 | 9245
CC1(C)CCCN(C(=O)c2coc(=O)c(Br)c2)C1 | -5 | . | . | . | . | -14 | 4333
C=CCNc1cnn(-c2ccccc2)c(=O)c1Cl | 2 | 6 | 1.2 | 1 | -3 | 5 | 2371
CC(C)N=C(Nc1cccnc1)c1ccccc1 | 10 | 4 | 2.1 | 4 | 5 | -27 | 4054
C/C(CCc1oc2ccccc2c1-c1ccc(C)o1)=N/O | -1 | . | . | . | . | -20 | 2472
CN1CCCN(S(=O)(=O)c2cccc(Cl)c2Cl)CC1 | -14 | 10 | 5.7 | 15 | 3 | 3 | 3506
CCn1cc(CN2CCCC(C(=O)Nc3cccc(-c4cc5ccccc5[nH]4)c3)C2)c(C)n1 (configuration not stated) | 4 | -12 | 11 | 0 | -3 | -8 | 4713
CC(C)(C)NCC(O)c1cc(Cl)c(N)c(Cl)c1 (configuration not stated) | 0 | 2 | 0.8 | 3 | 1 | -8 | 5423
Cc1c(N=Cc2cc(Br)cc(Br)c2O)cccc1C(=O)O | 9 | 6 | 30 | 1 | 4 | -25 | 2515
CNC(=O)c1ccccc1NC(=O)C1CC(=O)N(C(C)C)C1 (configuration not stated) | 1 | -1 | 1.3 | 2 | -2 | -10 | 3891
COc1cc(NC(=O)COc2ccccc2Cl)ccc1NC(=O)C(C)C | 2 | 1 | 7.1 | 17 | 17 | -14 | 4107
CC(=NNC(=O)Cc1cccn1C)c1ccco1 | . | 0 | 1.5 | 7 | 6 | . | .
CCCCN1C2=C(C(=O)CCC2)C(c2ccc(Cl)c(Cl)c2)C2=C1c1ccccc1C2=O (configuration not stated) | 10 | -16 | -0.7 | 11 | 6 | -8 | 5076
COc1cc2c(cc1OC)CN(C(=O)Nc1ccccc1)CC2 | -9 | 12 | 12 | 2 | 10 | -14 | 3910
COc1ccc(OC)c(C(=O)N(C)C2CCCN(Cc3ccccc3F)C2)c1 (configuration not stated) | 4 | 5 | 1.3 | 9 | 0 | -2 | 4114
CC(O)CNCCNCc1c(OCc2ccccc2)ccc2ccccc12 (configuration not stated) | 3 | -20 | -3.7 | 14 | 13 | -17 | 12513
CCN(CC)S(=O)(=O)c1cccc(NC2=NCCCCC2)c1 | -1 | 7 | 2.0 | 7 | 12 | -11 | 3703
COc1cc(N=Cc2c(O)[nH]c3ccccc23)cc(OC)c1OC | -10 | -16 | 10 | 12 | 12 | 45 | 11221
CC(C)Cn1c(Br)nc2c1c(=O)n(CCC#N)c(=O)n2C | -3 | 7 | 3.2 | . | . | -17 | 3689
Cc1ccc(C=NNC(=O)CNC(=O)Cc2ccccc2)o1 | . | 2 | 3.0 | -2 | 10 | . | .
Cc1cc(NC(=O)c2ccc(C)c([N+](=O)[O-])c2)no1 | 0 | 1 | -1.4 | -6 | 1 | -15 | 2561
CCCCN(C(=O)CSCc1c(C)noc1C)c1c(N)n(CCC)c(=O)[nH]c1=O | 1 | 8 | 4.8 | 2 | 1 | -8 | 5799
O=S(=O)(N/N=C/c1ccccc1F)c1ccccc1 | -3 | . | . | . | . | -17 | 4011
COc1ccc(-c2nn(-c3ccccc3)cc2/C=C/C(=O)OCC(=O)Nc2ccccc2C#N)cc1 | -8 | . | . | . | . | -19 | 4273
COc1cccc(NC(=S)N2CCN(S(=O)(=O)c3ccccc3)CC2)c1 | . | 11 | 4.7 | 3 | -5 | -2 | 4862
Cc1cc(NC(=O)c2cccc(C)c2[N+](=O)[O-])no1 | -4 | 5 | 6.0 | 12 | 3 | -17 | 4088
COc1cccc(C=NNc2ccc([N+](=O)[O-])cn2)c1OC | . | -1 | 0.1 | 2 | 10 | -79 | 4000
Cc1ccc(NC(=O)C(C)C(=O)Nc2ccc(C)cc2)cc1 | -1 | 4 | 2.8 | 9 | 5 | -21 | 4833
CCc1ccc(CN2CCN(Cc3ccc(SC)cc3)CC2)cc1 | 4 | . | . | . | . | -22 | 4634
CC1CCN(c2cc(Br)c([N+](=O)[O-])cc2F)CC1 | 7 | 8 | 14 | 3 | 2 | -16 | 5446
COc1ccc(NC(=O)COC(=O)c2cccc(S(=O)(=O)N(C)C)c2)cc1 | . | 3 | 1.9 | 8 | 9 | -30 | 4245
COc1ccc(-c2nn(-c3ccccc3)cc2C(=O)NC(=S)Nc2cc(Cl)ccc2Cl)cc1 | 0 | 2 | -2.8 | 16 | 3 | 16 | 3419
CC(=NNC(=O)CNC(=O)c1ccncc1)c1ccc(C)cc1 | . | 4 | 2.2 | 9 | 6 | . | .
CCOC(=O)c1sc(N(Cc2ccccc2)C(=O)CN2C(=O)CN(C)C2=O)nc1C | -7 | -2 | -6.6 | 3 | 12 | -32 | 3115
CN(Cc1ccco1)c1ncnc2ccc(-c3ccc4c(c3)OCO4)cc12 | . | 2 | 0.5 | -2 | 1 | -5 | 3741
COc1ccc(-c2nc(CS(=O)CC(=O)NC3CCCCCC3)c(C)o2)cc1 (configuration not stated) | 2 | 6 | 3.9 | 17 | 7 | -7 | 5824
CC(=O)Nc1ccccc1C(=O)OCC(=O)c1ccc2ccccc2c1 | -7 | -8 | 2.6 | -7 | -6 | -24 | 9706
O=C(O)CSc1c2c(nc3cc(C(=O)N4CCOCC4)ccc13)CCCC2 | -12 | 0 | 5.3 | 7 | 13 | -21 | 10426

Continuation.
molecule | BJeLR viability | ugtP null kill | RN4220 kill | Mtb hypoxia rep | Mtb hypoxia rep growth | PrP 5UTR inh | Bead autofluor
c1cc(C(c2nnnn2C2CCCC2)N2CCOCC2)ccn1 (configuration not stated) | -5 | 0 | 2.7 | 1 | -5 | -9 | 11333
COc1ccc(NC(=O)C(Br)C(C)C)cc1 (configuration not stated) | 3 | 4 | 1.6 | 10 | 0 | -24 | 3204
Cc1nn(C(=O)N2CCOCC2)c(C)c1C | 3 | 6 | 0.9 | . | . | -12 | 4785
CC(C)=C(NC(=O)c1ccccc1)C(=O)Nc1cccc(C)c1 | 0 | 2 | 1.3 | 1 | 5 | -16 | 5561

An unsorted share of the library; 4.1% or so of the library scored in one or more.
